Screening results: PubChem BioAssay, Johns Hopkins Ion Channel Center
CHT PAM – allosteric activators of human choline transporter CHT | 310,000 tested, 0.49% active | Q9GZV3 | B-score at 10 µM | AID 488977 | CHT-expressing cells, membrane potential dye, choline EC20; active compounds read high; LV-AA mutant CHT in HEK293 cells;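 active = initial fluorescence not abnormally high and integrated response B-score, plate-corrected, over 3 SD above library mean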
Target sequence (Q9GZV3 whole entry, looked up): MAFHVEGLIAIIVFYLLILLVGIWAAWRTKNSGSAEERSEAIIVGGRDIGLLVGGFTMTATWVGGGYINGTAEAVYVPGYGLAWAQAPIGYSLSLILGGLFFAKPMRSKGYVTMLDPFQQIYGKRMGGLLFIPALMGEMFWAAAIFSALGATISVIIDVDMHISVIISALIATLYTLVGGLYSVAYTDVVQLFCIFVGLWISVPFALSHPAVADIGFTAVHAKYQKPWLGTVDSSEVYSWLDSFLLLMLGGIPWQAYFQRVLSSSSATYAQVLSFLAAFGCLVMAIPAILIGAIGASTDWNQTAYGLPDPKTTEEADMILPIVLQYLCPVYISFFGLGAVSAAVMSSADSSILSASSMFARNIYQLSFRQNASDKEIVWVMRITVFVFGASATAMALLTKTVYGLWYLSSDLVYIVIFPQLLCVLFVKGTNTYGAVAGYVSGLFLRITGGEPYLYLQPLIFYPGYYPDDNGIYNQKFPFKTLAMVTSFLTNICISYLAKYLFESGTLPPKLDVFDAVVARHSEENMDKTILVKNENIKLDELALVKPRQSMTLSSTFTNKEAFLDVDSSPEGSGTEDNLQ
Calls only; i = inactive. An excerpt, and most or all hits are left out here.

Compound | CHT PAM
COCCCn1nnnc1SCC(=O)N1c2ccccc2CC1C (stereo unspecified) | i
Cn1c(=O)c2c(nc(Br)n2CC(=O)C23CC4CC(CC(C4)C2)C3)n(C)c1=O | i
COC(=O)C1C(=O)c2c([nH]c(C(=O)OC3CCCC3)c2C)CC1C (stereo unspecified) | i
CCOc1ccc(CCNC(=O)Cn2c(-c3nonc3N)nc3ccccc32)cc1OCC | i
O=C(O)c1ccc(S(=O)(=O)c2ccc3c(c2)C(=O)N(c2ccc(O)cc2)C3=O)cc1 | i
CC1CC(NS(=O)(=O)c2cc3c4c(c2)CCN4C(=O)CC3)CC(C)(C)C1 (stereo unspecified) | i
CCOc1ccc2c(C)nc(NC3=NC(C)(C)C=C(C)N3)nc2c1 | i
Cc1cc(C)c(OCCN(C)C)c(Cl)c1 | i
NS(=O)(=O)OCCCCCc1ccccc1 | i
Cc1ccc(NC(=O)CN(C)C(=O)CSc2nnnn2C)cc1 | i

Next section:
Compound | CHT PAM
Cc1oc2ccc(O)cc2c1C(=O)c1ccc([N+](=O)[O-])cc1 | i
Cc1ccc(/C=N/n2c(-c3cccs3)n[nH]c2=S)cc1 | i
CCc1nnc(NC(=O)c2ccc3nc(CC)c(CC)nc3c2)s1 | i
N/C(=N\OC(=O)/C=C/c1ccccc1Cl)c1ccccn1 | i
Cc1nc2cc(NC(=O)c3ccc(Cl)cc3)ccc2n1C | i
CCOc1ccc(NS(=O)(=O)c2ccc(NC(=O)C3CCCO3)cc2)cc1 (stereo unspecified) | i
COc1cccc(N2CCN(S(=O)(=O)c3ccc4nc(-c5ccccc5)[nH]c4c3)CC2)c1 | i
O=C(COC(=O)CCC(=O)c1ccc(F)cc1)Nc1ccccc1 | i
CC(C)C(=O)Nc1ccc(N2CCCC2)cc1 | i
C=CCNC1=C(Cl)C(=O)N(c2ccccc2Cl)C1=O | i

(next part)
Compound | CHT PAM
C=CCOc1ccc2c(CC)cc(=O)oc2c1C | i
CCN(CC)CC(=O)n1c2c(c3ccccc31)CCCC2 | i
Cc1cccc(C#N)c1NC1=CC(=O)CC(C)(C)C1 | i
CCCCN(C(=O)c1ccc2c(c1)OCCO2)c1c(N)n(CC(C)C)c(=O)[nH]c1=O | i
CSC(=NC#N)N1CCN(C(=NC#N)SC)CC1 | i
C=CCNC(=O)CSc1ncc2c(n1)-c1c(csc1SC)CC2 | i
COc1ccccc1-c1cc(C(=O)N2CCCc3ccccc32)no1 | i
Cc1cccc(NC(=O)c2ccc(OCC3CCCO3)cc2)c1C (stereo unspecified) | i
C=CCOc1ccc(CNc2nccs2)cc1OCC | i
CCOC(=O)C(C)Sc1nc(-c2cccs2)ccc1C#N (stereo unspecified) | i

The list continues:
Compound | CHT PAM
Cc1cccc(-c2noc(-c3ccc(Cl)cc3[N+](=O)[O-])n2)c1 | i
COc1cc2c(cc1OC)CN(C(=O)CSc1nc(N)c(C#N)cc1C#N)CC2 | i
COc1ccc(OCc2cc(/C=N\NC(=O)c3ccccc3)ccc2OC)cc1 | i
O=C(c1cc(COc2ccc(F)cc2Cl)on1)N1CCN(c2cnccn2)CC1 | i
COc1ccc2oc(C(F)(F)C(F)F)cc(=O)c2c1 | i
CCOC(=O)c1c(C)[nH]c(C)c1C(=O)COC(=O)c1ccc(Cl)c(S(=O)(=O)NCc2ccccc2)c1 | i
CC(C)NC(=O)C(=O)NNC(=O)CCc1ccccc1 | i
CN(Cc1ccccc1)c1nc(-c2cccc([N+](=O)[O-])c2)nc2ccccc12 | i
Cc1ccc(-c2nnc(-c3ccccc3)c(N3CCOCC3)n2)cc1 | i
CCCc1cc2nnc(SCC(=O)N(C)C3CCCCC3)n2c(N)n1 | i

Additional results:
Compound | CHT PAM
CCOC(=O)N1CCN(C(c2ccccc2)c2sc3nc(C)nn3c2O)CC1 (stereo unspecified) | i
COc1cccc(C(=O)Nc2cc(C(F)(F)F)ccc2Cl)c1 | i
CCc1ccc(Nc2ccc3nonc3c2[N+](=O)[O-])cc1 | i
CC(C)(C)c1cc(=O)n2[nH]c(N)nc2n1 | i
CCCCCCCNC(=O)C1(CC2CC(c3ccccc3)=NO2)CCN(C(=O)OC(C)(C)C)CC1 (stereo unspecified) | i
CNS(=O)(=O)c1ccc(NC(=O)C(CCSC)NC(N)=O)cc1 (stereo unspecified) | i
CCCN1Cc2cccc(C(=O)NCc3ccc4c(c3)OCO4)c2C1=O | i
COc1ccc(-c2csc(NC(=S)NC(=O)/C=C/c3ccco3)n2)cc1OC | i
Cc1ccccc1N1CCN(C2CCCN(C(=O)c3cc(C(C)C)[nH]n3)C2)CC1 (stereo unspecified) | i
O=[N+]([O-])c1ccccc1S(=O)(=O)N1CCCc2ccccc21 | i

(more compounds)
Compound | CHT PAM
c1ccc(C(c2nnnn2C2CCCCC2)N2CCc3ccccc3C2)nc1 (stereo unspecified) | i
Cc1nnc(SCCOc2ccccc2)s1 | i
CCN(C(=O)c1c(N)cnn1C)c1ccccc1 | i
O=S(=O)(c1ccc(F)cc1)N1CCC(c2nc3ccccc3[nH]2)CC1 | i
CC(C(=O)NCC1(c2ccccc2)CCCC1)N1CCOCC1 (stereo unspecified) | i
CCCc1nn(C)c2c(=O)[nH]c(-c3cc(S(=O)(=O)Nc4ccc(NC(C)=O)cc4)ccc3OCC)nc12 | i
Nc1nc(COc2ccc(F)cc2)nc(N2CCCCC2)n1 | i
COc1ccccc1N1CCN(S(C)(=O)=O)CC1 | i
CCOC(=O)CCc1c(C)nc2cc(-c3ccc(Cl)cc3)[nH]n2c1=O | i
NC(=S)NNC(=S)Nc1ccccc1 | i

Six entries already listed, arranged by molecular weight, descending.
Compound | CHT PAM
CCCc1nn(C)c2c(=O)[nH]c(-c3cc(S(=O)(=O)Nc4ccc(NC(C)=O)cc4)ccc3OCC)nc12 | i
CCOC(=O)CCc1c(C)nc2cc(-c3ccc(Cl)cc3)[nH]n2c1=O | i
O=S(=O)(c1ccc(F)cc1)N1CCC(c2nc3ccccc3[nH]2)CC1 | i
CC(C(=O)NCC1(c2ccccc2)CCCC1)N1CCOCC1 (stereo unspecified) | i
Nc1nc(COc2ccc(F)cc2)nc(N2CCCCC2)n1 | i
CCN(C(=O)c1c(N)cnn1C)c1ccccc1 | i

(more compounds)
Compound | CHT PAM
Cc1ccc(NC(=O)C(Nc2ccccc2)c2ccccc2)cc1 (stereo unspecified) | i
Brc1ccc2nc(N3CCCC3)sc2c1 | i
CCC1(CC)Cc2ccccc2C(C2=C(O)CC(C)(C)CC2=O)=N1 | i
CCCCNC(=O)Nc1cnn(CC)c1C(N)=O | i
CCOC(=O)C(NC(=O)CC(C)C)(Nc1cc(C)on1)C(F)(F)F (stereo unspecified) | i
COc1ccc(C(=O)N2CCC(N3CCN(c4ccccc4)CC3)CC2)cc1OC | i
Cn1c(=O)c2c(SCC(N)=O)nc(CC(C)(C)C)nc2n(C)c1=O | i
CCN(CC)CCN1C(=O)C(=O)/C(=C(/O)c2c(C)[nH]c(C(=O)OC)c2C)C1c1cccnc1 (stereo unspecified) | i
Cc1ccc2ccc(S(=O)(=O)NCc3ccco3)cc2c1 | i
CN(Cc1ccccc1)C(=O)COC(=O)c1ccc2c(c1)OCO2 | i

Next section:
Compound | CHT PAM
O=c1nc2n(c3cc(Cl)c(S(=O)(=O)N4CCOCC4)cc13)CCCCC2 | i
CCc1cc2c(cc(C(=O)O)n2C)s1 | i
CC(C)n1c(SCC(=O)Nc2ccc3c(c2)OCO3)nc2c1c(=O)n(C)c(=O)n2C | i
O=C1C=C(O)c2c(O)cc(O)c(O)c2C1=O | i
CC(C)(O)C#Cc1ccc(C(=O)NCc2cccs2)s1 | i
O=C(NC1CCCCCC1)c1ccc(CN2CCOCC2)cc1 | i
COc1ccc(NC(=S)c2ccc3ccccc3n2)cc1 | i
CCCN1C(=O)/C(=C/c2nc3ccccc3c(=O)[nH]2)c2cc(C)ccc21 | i
Cc1cc2nc(-c3ccc(SCc4ccccn4)nc3)[nH]c2cc1C | i
O=S(=O)(c1ccccc1)N1CCN(Cc2cccc(Cl)c2)CC1 | i

More entries follow.
Compound | CHT PAM
Cc1ccc(C(=O)N2CC=C(c3ccccc3)CC2)o1 | i
CCCN(CC(=O)Nc1ccccc1OC)C(=O)CCNC(=O)c1ccccc1OC | i
COc1cccc([C@@H]2Oc3ccc(OC)cc3C(=O)[C@H]2OC(=O)N[C@H](C)C2CCCCC2)c1 | i
C/C(=N\NC(=O)c1cccc(S(=O)(=O)N2CCCC2)c1)c1ccccc1F | i
O=C(Nc1ccon1)c1sc2cc(F)ccc2c1Cl | i
Cc1nn(C(=O)CNS(=O)(=O)c2ccccc2)c(C)c1Sc1ccc(Cl)cc1 | i
COc1ccc(N=C2S/C(=C\c3ccco3)C(=O)N2CC(C)C)cc1 | i
CC(NC(=O)C12CC3CC(C)(CC(C)(C3)C1)C2)c1ccncc1 (stereo unspecified) | i
N/C(=N\OS(=O)(=O)c1ccccc1)c1cccnc1 | i
CCOC(=O)Cc1csc(NC(=O)C(C)Oc2ccc3c(C)cc(=O)oc3c2)n1 (stereo unspecified) | i

Random excerpt: two entries already listed.
Compound | CHT PAM
Cn1c(=O)c2c(SCC(N)=O)nc(CC(C)(C)C)nc2n(C)c1=O | i
Cc1cccc(-c2noc(-c3ccc(Cl)cc3[N+](=O)[O-])n2)c1 | i

Later entries:
Compound | CHT PAM
Cc1ccc(S(=O)(=O)CC(=O)Nc2sc(C)c(C)c2C(N)=O)cc1 | i
COc1ccc(Nc2nc(C(=O)N3CCc4ccccc4C3)cs2)cc1 | i
Cc1ccc(F)cc1NC(=O)CSc1nnc(CNC(=O)c2ccco2)n1C | i
Cc1cccc2sc(NC(=O)C3=NN(c4ccccc4)C(=O)CC3)nc12 | i
CCOC(=O)c1ccc(NC(=O)CSc2ccc(-c3ccccn3)nn2)cc1 | i
CC(C)CN1CC(C(=O)O)CC1=O (stereo unspecified) | i
COc1cc(NC(=O)CN2CCCCC2)c(C)cc1[N+](=O)[O-] | i
O=C(COc1ccccc1)c1cn(CC(=O)N2CCOCC2)c2ccccc12 | i
OCCC1CN(Cc2ccon2)CCN1Cc1ccccc1 (stereo unspecified) | i
CCCC(=O)Nc1c2c(nn1-c1ccc(C)cc1C)CSC2 | i

Continued:
Compound | CHT PAM
COc1ccc(CC(NC(C)=O)C(=O)NC2CCN(S(=O)(=O)c3ccc(NC(C)=O)cc3)CC2)cc1OC (stereo unspecified) | i
O=C(Nc1ccccc1C(=O)O)c1cccc(NC(=O)c2ccco2)c1 | i
O=C(NCCO)c1ccc2[nH]c3ccccc3c2c1 | i
Nc1nonc1C(=O)NCCNS(=O)(=O)c1ccc(Br)cc1 | i
Cc1ccc(NC(=O)NC(=S)NC(=O)c2ccccc2)cc1 | i
O=[N+]([O-])c1cc(-c2nnc(N3CCOCC3)c3ccccc23)ccc1N1CCOCC1 | i
COc1ccc(C(=O)NN=C2CCCC2)cc1 | i
Cc1ccc(S(=O)(=O)N2CCCCC2)cc1C(=O)c1nccn1C | i
O=[N+]([O-])c1cccc(S(=O)(=O)Nc2ccc(-c3ccc(N4CCCC4)nn3)cc2)c1 | i
Brc1ccc(-c2nc(-c3cccnc3)no2)o1 | i

Next part.
Compound | CHT PAM
Cc1cc(C(=O)N(C)C2CCCCC2)no1 | i
CCc1ccc(NC(=O)CSc2nc3ccsc3c(=O)n2CCCCCC(=O)O)cc1 | i
Cc1ccc(S(=O)(=O)NCCC(=O)NCC(=O)Nc2c(C)cccc2C)cc1C | i
CCOc1c2ccc(C(=O)NCc3ccc(OC(F)(F)F)cc3)cc2nn1CC | i
O=[N+]([O-])c1ccccc1S(=O)(=O)Nc1ncccn1 | i
O=C(COc1ccccc1)NCCc1nc2ccccc2[nH]1 | i
O=C(Nc1nnc(-c2cccs2)s1)C1CC1 | i
COc1ccc(Cl)cc1S(=O)(=O)N1CCCc2ccccc21 | i
COc1ccccc1C(=O)C1CCCN(C(=O)c2cc(CC(C)C)nc(C)n2)C1 (stereo unspecified) | i
NC(=O)c1sc2nc3c(cc2c1N)CCC3 | i

Carrying on.
Compound | CHT PAM
Cc1cc(C)c(-c2csc(Cc3nc(-c4cc5ccccc5oc4=O)cs3)n2)cc1C | i
Cc1c(C#N)c2ccccc2n1CC(=O)N1CCc2ccccc2C1 | i
Cc1ccc(NC(=O)OCC(F)(F)C(F)F)cc1NC(=O)OCC(F)(F)C(F)F | i
O=C(/C=C/c1ccccc1)Nc1ccc2c(c1)C(=O)NC2=O | i
COc1ccc(C(=O)CSc2nnc3n2CCCN3C(=O)Nc2ccccc2)cc1 | i
Cc1c(N(C)C(=O)C23CC4CC(CC(C4)C2)C3)c(=O)n(-c2ccccc2)n1C | i
CC(C)C(c1nnnn1Cc1ccccc1)N1CCN(Cc2ccco2)CC1 (stereo unspecified) | i
CCOc1ccccc1CN1CCN(Cc2csc(C(C)=O)c2)CC1CCO (stereo unspecified) | i
Cn1nnnc1SCC1=C(C(=O)O)N2C(=O)[C@@H](NC(=O)[C@H](O)c3ccccc3)[C@H]2SC1 | i
O=C(CSc1nnc(NC(=O)c2ccco2)s1)Nc1ccccc1F | i

(further entries)
Compound | CHT PAM
CC(=O)N(Cc1ccco1)c1nc(C(=O)Nc2ccc(Cl)cc2)c(C)s1 | i
COc1cc(/C=N/n2cnnc2)ccc1OC(=O)c1ccco1 | i
CCCOc1ccc(CSCCNC(=S)Nc2ccccc2)cc1 | i
O=C1CC(c2cccc([N+](=O)[O-])c2)c2cc3c(cc2N1)CCC3 (stereo unspecified) | i
NC(=O)CC(NC(=O)Cc1ccc(Br)cc1)c1ccc(NCCOc2ccccc2)c([N+](=O)[O-])c1 (stereo unspecified) | i
CCn1ccnc1CN1CCC(n2nccc2NC(=O)c2ccccc2OC)CC1 | i
CCOC(=O)C1=C(C)N(C)C(=O)NC1c1c(C)nn(-c2ccc(C)cc2)c1Cl (stereo unspecified) | i
CCN(CC)Cc1c(C(=O)N/N=C/c2ccccn2)nnn1-c1nonc1N | i
CC(Oc1ccc(-c2ccccc2)cc1)C(=O)N1CCOCC1 (stereo unspecified) | i
N=C1/C(=C\c2ccc(OC(=O)c3ccc(F)cc3)cc2)C(=O)N=C2SC(N3CCCC3)=NN12 | i
CCOC(=O)c1c(NC(=S)Nc2ccccc2)sc2c1CCCCC2 | i
